CSM14.1 death rescue – rescue of cells from ER stress-induced death, primary screen, 384-well, CSM14.1, thapsigargin, ATP luminescence (AID 1222). 190,000 tested, under 10 active. one-dose cellular ATP content (survival), % at 20 µM; EC50 in µM for titrated hits. CSM14.1 thapsigargin-induced death rescue, ATP luminescence; higher % means a stronger effect;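 active = EC50 below 50 µM in the dose-response confirmation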;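 also: death triggered by thapsigargin at about 15 µM added after 2 h compound pretreatment; cell ATP read after overnight thapsigargin exposure of roughly 18 to 22 hours; normalized against plate controls of thapsigargin alone and 5% DMSO vehicle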
XIAP antagonists – small molecules displacing peptide from XIAP – biochemical, IAP family, fluorescence polarization (AID 1018); XIAP BIR domain, fluorescence polarization peptide displacement; higher % means a stronger effect; one-dose displacement, % at 20 µM; IC50 in µM for titrated hits; hit rate 0.007% among 200,000; in the data active = displacement above about 50%; also: a part of the inactive calls stands beside numbers as strong as those of hits
PMI inhibitors – inhibitors of human PMI, primary screen, biochemical, fluorescence intensity, coupled assay (AID 1209). purified PMI enzyme, coupled fluorescence intensity; higher % means a stronger effect. inhibition, % at 20 µM, or IC50 in µM where a hit was titrated. hit rate 0.42% among 190,000;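 also: plate controls were DMSO vehicle for no effect and wells lacking substrate for full effect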
P. falciparum M1AAP – P. falciparum M1AAP inhibitors, biochemical, fluorogenic H-Leu-NHMec substrate, 1536-well (AID 1445) | recombinant M1AAP, H-Leu-NHMec fluorogenic kinetic assay; higher % means a stronger effect | inhibition, % at 30 µM, or IC50 in µM where a hit was titrated | hit rate 0.42% among 220,000;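 active = primary inhibition above the hit cutoff, then over 50% inhibition at one or more dose response concentrations, cut at about 23% in these data, passing the limit was not always enough; inconclusive = conflicting primary data, or primary hits not chosen for dose response; inactive = low primary inhibition, or under 50% at every dose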;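 also: plate controls were DMSO full reaction for no effect and no enzyme background for full effect; strong numbers were not always called active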
PMI inhibition – human PMI inhibitors, high substrate, primary screen, biochemical, fluorescence intensity, high mannose 6-phosphate (AID 1220). one-dose inhibition, % at 20 µM; IC50 in µM for titrated hits. hit rate 0.66% among 190,000. recombinant PMI enzyme, coupled fluorescence intensity; higher % means a stronger effect
LYP phosphatase – PTPN22 lymphoid phosphatase activity blockers – biochemical, fluorescence intensity, uHTS (AID 1779). recombinant LYP phosphatase, fluorescence intensity; higher % means a stronger effect. inhibition, % at 11.5 µM, or IC50 in µM where a hit was titrated. hit rate 0.054% among 290,000;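 also: plate controls were vehicle with enzyme for no effect and no enzyme for full effect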
Myeloid diff MLP – compounds promoting myeloid differentiation | ER-HoxA9 myeloid progenitors, lysozyme-GFP differentiation, flow cytometry | calls only at 10 µM | hit rate 1% among 360,000 | AID 624256;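 active = normalized GFP-positive differentiation at or above the plate's own cutoff, the solvent-only control mean plus 3 SD; inconclusive = no clear call, values can overlap the other calls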;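 also: cells exposed to compound for four days before flow analysis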
Myeloid diff MLP GFP+ MAC1+ % – also measured in Myeloid diff MLP; calls as there; GFP+ MAC1+ double positive, %; measured here: differentiation confirmed by MAC1 staining
* = called active by the depositor; i = inactive; ? = inconclusive; · = no result given; + = active, no number. Rule as the data show it, unless noted: active = inhibition above about 50%; inactive = the rest.

| compound | CSM14.1 death rescue | XIAP antagonists | PMI inhibitors | P. falciparum M1AAP | PMI inhibition | LYP phosphatase | Myeloid diff MLP | Myeloid diff MLP GFP+ MAC1+ % |
| --- | --- | --- | --- | --- | --- | --- | --- | --- |
| O=C1C(CCS(=O)c2ccccc2)C(=O)N(c2ccccc2)N1c1ccccc1 (stereo unspecified) | 2.9% | -3.0% | 0% | 12% | -56% | 0% | i | 1.5 |
| Cn1cc(Br)c(C(=O)NNC(=O)c2cccc(Br)c2)n1 | 1.2% | -0.1% | 0% | 3% | -5% | -4% | i | 1.0 |
| NCCS | -2.4% | -3.3% | -13% | -1% | -25% | -4% | ? | · |
| Cc1nc2n(c(=O)c1CCN1CCC(c3noc4cc(F)ccc34)CC1)CCCC2 | -1.4% | -0.5% | -1% | 3% | -7% | -8% | i | 5.3 |
| S=c1nc(-c2cccc(Br)c2)[nH][nH]1 | 0.9% | -4.3% | 14µM* | 12% | 42% | -5% | i | 5.6 |
| CC1C2=C(CC(C)(C)CC2=O)NC2=C1C(=O)CC(C)(C)C2 | -0.9% | -8.9% | -14% | 21% | -10% | -20% | i | 0.3 |
| CCN(CC)CCCNC(=O)CCC(=O)NNc1nc2ccccc2c2nc(C)nn12 | 2.9% | -4.0% | -2% | 15% | 0% | -9% | i | 0.6 |
| O=C(O)[C@H](O)[C@@H](O)C(=O)O | · | · | · | · | · | · | i | 2.6 |
| O=C(Nc1ncn[nH]1)c1cc(S(=O)(=O)Nc2ccc(Cl)cc2)ccc1Cl | -0.8% | -5.3% | -11% | 8% | 0% | -3% | i | 0.1 |
| CC1CC2C(C(O)CC3(C)C2CCC3(O)C(=O)CO)C2(C)C=CC(=O)C=C12 (stereo unspecified) | · | · | · | · | · | · | ? | · |
| O=C1Nc2ccc(Br)cc2C12NNc1ccccc1O2 (stereo unspecified) | -3.1% | -2.3% | 2% | 16% | 10% | 4% | + | 20* |
| CC(=O)NNc1ncnc2c1cnn2-c1ccc(C)cc1 | -1.0% | -2.8% | 8% | 6% | 9% | -7% | i | 0.6 |
| CC1CCc2c(sc(NC(=O)CSc3nnc(-c4ccccc4)o3)c2C#N)C1 (stereo unspecified) | -0.7% | -3.2% | 2% | 10% | 57%* | 7% | i | 0.6 |
| Cc1cnc(C(=O)NCCc2ccc(S(=O)(=O)NC(=O)NC3CCCCC3)cc2)cn1 | 1.0% | -2.2% | -5% | 8% | 1% | -3% | i | 2.7 |

Profiles, looked up by structure. Screens in order: CSM14.1 death rescue | XIAP antagonists | PMI inhibitors | P. falciparum M1AAP | PMI inhibition | LYP phosphatase | Myeloid diff MLP | Myeloid diff MLP GFP+ MAC1+ %
S=c1nc(-c2cccc(Br)c2)[nH][nH]1 is entered as 0.9% | -4.3% | 14µM* | 12% | 42% | -5% | i | 5.6
CC1CC2C(C(O)CC3(C)C2CCC3(O)C(=O)CO)C2(C)C=CC(=O)C=C12 (stereo unspecified) is entered as · | · | · | · | · | · | ? | ·
O=C(Nc1ncn[nH]1)c1cc(S(=O)(=O)Nc2ccc(Cl)cc2)ccc1Cl is entered as -0.8% | -5.3% | -11% | 8% | 0% | -3% | i | 0.1
CC(=O)NNc1ncnc2c1cnn2-c1ccc(C)cc1 is entered as -1.0% | -2.8% | 8% | 6% | 9% | -7% | i | 0.6
O=C(O)[C@H](O)[C@@H](O)C(=O)O is entered as · | · | · | · | · | · | i | 2.6

Limited to LYP phosphatase (four entries from above):
| canonical_smiles | LYP phosphatase |
| --- | --- |
| O=C1Nc2ccc(Br)cc2C12NNc1ccccc1O2 (stereo unspecified) | 4% |
| CC(=O)NNc1ncnc2c1cnn2-c1ccc(C)cc1 | -7% |
| CC1CCc2c(sc(NC(=O)CSc3nnc(-c4ccccc4)o3)c2C#N)C1 (stereo unspecified) | 7% |
| Cc1cnc(C(=O)NCCc2ccc(S(=O)(=O)NC(=O)NC3CCCCC3)cc2)cn1 | -3% |

Not all compounds are listed. The share of hits here may be higher or lower than overall.
